TRPML1 ag: agonists of human TRPML1 channel | Q9GZU1 | TRPML1-expressing cells, Ca2+ dye fluorescence, FDSS; host cell line not named in the record; reference of the full effect not given here | activation, % (test concentration not listed) | 0.12% of 410,000 active | AID 624414; in the data active = activation above about 50%; inconclusive = about 30% to 50%; inactive = below about 30%; further: 0% is about no effect; the text of the record puts the active cut at 80%
Target sequence (Q9GZU1 whole entry, looked up): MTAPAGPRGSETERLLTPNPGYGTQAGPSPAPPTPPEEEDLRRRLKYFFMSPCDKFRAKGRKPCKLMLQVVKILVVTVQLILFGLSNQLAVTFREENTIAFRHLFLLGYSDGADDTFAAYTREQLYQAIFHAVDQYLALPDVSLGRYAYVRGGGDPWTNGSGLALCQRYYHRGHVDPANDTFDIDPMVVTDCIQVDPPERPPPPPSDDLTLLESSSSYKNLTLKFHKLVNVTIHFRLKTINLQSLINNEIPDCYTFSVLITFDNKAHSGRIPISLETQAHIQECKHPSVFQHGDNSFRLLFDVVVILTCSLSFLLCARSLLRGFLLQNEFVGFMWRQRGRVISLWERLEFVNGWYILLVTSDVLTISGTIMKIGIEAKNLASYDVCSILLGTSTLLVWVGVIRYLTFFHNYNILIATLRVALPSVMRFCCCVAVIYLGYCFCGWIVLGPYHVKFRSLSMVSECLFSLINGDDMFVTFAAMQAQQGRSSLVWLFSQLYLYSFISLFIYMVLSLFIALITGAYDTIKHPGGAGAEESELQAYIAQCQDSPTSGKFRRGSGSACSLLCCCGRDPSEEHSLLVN
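Agonist activity was taken from a 110 s kinetic Ca2+ dye read on the FDSS after pinning compounds onto TRPML1-DL cells. The cells were seeded at 1,500/well with Tet inducer, incubated about 16 h, then dye-loaded at room temperature.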
Six1-Eya2 blk: inhibitors of human Six1/Eya2 interaction | Q15475+O00167 | AlphaScreen GST-Six1/His-Eya2 binding, biochemical; active compounds read low; control for the full effect not named in the record | activity change, % (test concentration not listed) | 0.56% of 360,000 active | AID 651725; in the data active = activity change below about -65%; inconclusive = about -30% to -65%; inactive = above about -30%; further: on the % scale 0 is the no-effect control and ±100 the full control effect
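Homogeneous AlphaScreen proximity assay pairing GST-Six1 with His-tagged Eya2 (added as 5X mix: 250 nM and 500 nM) in 50 mM Tris pH 8.0, 300 mM NaCl, 1 mM TCEP. Glutathione donor and nickel acceptor beads; 1 h, 37 °C, dark.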
TRPML1 blocker: blocks the human TRPML1 channel; Q9GZU1; TRPML1-inducible cells, Ca2+ dye fluorescence, FDSS; active compounds read low; inhibition of EC80 agonist-evoked calcium signal; activity change, negative = inhibition, % (concentration not given with the values); 0.02% of 390,000 active; AID 624415; in the data active means activity change below about -50%; inconclusive means about -30% to -50%; inactive means above about -30%;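 further: stimulus is agonist 54-4 at its EC80 concentration; on the % scale 0 is the no-effect control and ±100 the full control effect; the text of the record puts the active cut at -80%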
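TRPML1-DL cells, Tet-induced overnight (~16 h, 37 °C) at 1,500 cells/well, were loaded with Ca8 no-wash dye plus quencher for 45-90 min at room temperature. Compounds were pinned during FDSS kinetic reading; agonist 54-4 at EC80 (4 uM final) then added.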
PINK1 modulator: changes PINK1 expression; PINK1 immunofluorescence, high-content cytometry, 24 h; 0.2% of 410,000 active; Potency, µM (titrated, usually from 76.6 µM), inactives show at the highest dose activation (PINK1 increase), actives largely listed as activators; active = well fitted activation curve with a large enough effect; inconclusive = small, poorly fitted or top-dose-only effect; inactive = flat fitted curve, though single readings scatter; cell line not stated here;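 further: potency means the concentration at half of the fitted maximal effect; % of control where 0% means no effect; nearly all actives have a fitted effect of over 65% in size; a mitochondrial uncoupler was the plate control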
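PINK1 protein, normally rapidly degraded, was detected by immunofluorescence after 24 hour compound treatment of a stable cell line. Titration data (5 concentrations) came from laser-scanning cytometry, with CCCP-treated wells as controls.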
D2 ag: activates the human D2 dopamine receptor | DiscoveRx PathHunter D2 beta-arrestin, luminescence, 90 min; 100% = 57 uM dopamine signal | activation, % (test concentration not listed) | 0.084% of 360,000 active | AID 624465; in the data active = activation above about 40%; inconclusive = about 15% to 40%; inactive = below about 15%; further: compound concentration not given in the record; the text of the record calls up to 30% inactive
Target sequence (P14416 whole entry, looked up): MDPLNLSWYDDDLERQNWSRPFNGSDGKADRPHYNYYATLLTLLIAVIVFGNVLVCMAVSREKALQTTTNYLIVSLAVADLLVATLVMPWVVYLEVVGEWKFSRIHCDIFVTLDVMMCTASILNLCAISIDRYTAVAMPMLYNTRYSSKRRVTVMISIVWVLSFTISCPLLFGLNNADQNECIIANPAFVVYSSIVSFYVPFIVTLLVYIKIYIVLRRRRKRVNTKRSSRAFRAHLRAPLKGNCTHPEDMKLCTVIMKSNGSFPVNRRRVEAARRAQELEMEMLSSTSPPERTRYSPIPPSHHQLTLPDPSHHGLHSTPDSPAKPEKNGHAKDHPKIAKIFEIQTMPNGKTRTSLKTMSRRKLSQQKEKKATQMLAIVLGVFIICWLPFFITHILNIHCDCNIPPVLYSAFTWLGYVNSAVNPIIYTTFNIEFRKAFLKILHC
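DiscoveRx PathHunter D2 beta-arrestin cells (2,100/well) attached overnight, then compound-stimulated 90 min at 37 C in HBSS/10 mM HEPES/0.1% Tween-20 buffer; beta-galactosidase complementation read by luminescence after 1 h at ambient temperature. Dopamine 57 uM final (EC100) as control.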
CtBP-E1A blk: blocks the CtBP interaction with E1A; activity change, % (concentration not given with the values); AID 651724; 0.49% of 340,000 active; AlphaScreen GST-E1A/His-CtBP binding, 1536-well; active compounds read low; control for the full effect not named in the record; in the data active means activity change below about -65%; inconclusive means about -30% to -65%; inactive means above about -30%; further: on the % scale 0 is the no-effect control and ±100 the full control effect
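AlphaScreen with 125 nM GST-E1A and 125 nM His-CtBP (5X stocks) in Tris pH 8.0, 300 mM NaCl, BSA, Tween 20, TCEP. Compounds preincubated 2 h at 37 deg C, then glutathione donor/nickel acceptor beads added for 1 h at 37 deg C in dark.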
* hit, by the source's call; u = inconclusive; x = no result given; [ ] = remark or other dose.

SMILES	TRPML1 ag	Six1-Eya2 blk	TRPML1 blocker	PINK1 modulator	D2 ag	CtBP-E1A blk
COc1ccc(C)cc1NC(=O)C1CCN(S(=O)(=O)c2ccc3[nH]c(=O)oc3c2)CC1	0.9	x	21	1.3%	x	x
Cc1ccc(NC(=O)CN(C)CC(=O)Nc2ccc(F)c(F)c2F)c(Cl)c1	0.7	5	-14	3.3%	3.7	9
CC(C)c1ccc(Nc2ncc3c(n2)CCN(C(=O)NC2CCCCC2)C3)cc1	-0.7	1	x	-0.1%	0.5	3
CN(Cc1ccccc1)Cc1ccccc1F	-0.3	11	-2	-1.8%	-1.5	1
CCOC(=O)CN1C(=O)SC(CC(=O)Nc2nccs2)C1=O (centres undefined)	-0.6	-5	-1	1.8%	-2.7	9
CCOC(=O)C1C(=O)NC(N2CCN(c3ccccc3)CC2)=NC1c1ccco1 (centres undefined)	-0.2	0	9	-0.4%	-1.3	6
Cc1ccc(NC(=O)c2ccc(NS(=O)(=O)c3cccc4cccnc34)cc2)cc1	2.8	-7	9	-0.1%	11	0
COc1ccc(-c2cc(C(=O)Nc3ccc(S(N)(=O)=O)cc3)c3ccccc3n2)cc1OC	-0.1	13	-18	0.7%	-5.1	x
CN1CCN(C(=O)/C=C/c2ccc3c(c2)OCO3)CC1	1.2	9	-13	1.5%	1.4	2
C1=C[C@H]2CC[C@@H]1N(c1ccccc1)O2	0.1	5	4	-0.4%	1.7	2
CCN(CC)CCNC(C(=O)Nc1ccc([N+](=O)[O-])cc1Br)c1ccccc1 (centres undefined)	-0.4	-4	-4	0.4%	-3.7	4
CCSc1nnc(NC(=O)CSC2=NN3CCCC(=O)N=C3S2)s1	-0.4	-1	-2	0.4%	3.5	5
CCN(c1ccc(OC)cc1)S(=O)(=O)c1nnc(NC(=O)c2ccco2)s1	-0.9	-2	-12	0.9%	-11	1
CCOc1ccc(NC(=O)CCS(=O)(=O)c2ccc(C)cc2)cc1	-0.2	8	5	0.5%	0.9	-6
CC(C1CC1)N(C(=O)NC1CCS(=O)(=O)C1)c1ccccc1 (centres undefined)	-0.1	12	-3	-1.0%	0.0	2
COc1cccc(NC(=O)Cc2ccc(C)cc2)c1	0.2	7	-7	-0.5%	-4.7	2
Cc1ccc(S(=O)(=O)N2CCN(C(=O)COC(=O)CC(C)c3ccccc3)CC2)c(C)c1 (centres undefined)	3.1	-8	25	0.5%	2.5	-7
O=C(C1CCC(CNS(=O)(=O)c2ccc(F)cc2)CC1)N1CCOCC1 (centres undefined)	0.1	2	-19	-0.5%	0.9	-2
CC[N+](CC)(CC)CC(=O)Nc1ccc(SC(F)F)cc1	-0.6	18	-9	-1.5%	-1.7	-7
O=C(CCC(=O)N1CC2CCCN2c2ccccc21)NCc1cccc(Cl)c1 (centres undefined)	-0.7	x	3	3.2%	x	x
CC1CC(=O)N(c2ccc(Br)cc2)C(=O)C1	3.6	-7	-3	-2.5%	0.1	5
COc1nnc(-c2ccc(N3CCOCC3)c(NC(=O)c3ccc(C)cc3)c2)c2ccccc12	1.3	-13	23	1.6%	-2.1	-12
COc1ccc(CCNC(=O)CSc2ccc(-c3ccco3)nn2)cc1	1.6	2	-29	0.3%	-2.7	0
N#C/C(C(=O)c1ccccc1)=C1/CCCN1	-0.9	4	11	-4.1%	1.5	2
O=S(=O)(c1cccc(Cl)c1Cl)N1CCN(C(=S)NCCCN2CCOCC2)CC1	0.4	0	15	-0.6%	-6.4	-5

Entries of single compounds, looked up by structure:
Entry for CC(C1CC1)N(C(=O)NC1CCS(=O)(=O)C1)c1ccccc1 (centres undefined) = TRPML1 ag = -0.1; Six1-Eya2 blk = 12; TRPML1 blocker = -3; PINK1 modulator = -1.0%; D2 ag = 0.0; CtBP-E1A blk = 2
Entry for CCSc1nnc(NC(=O)CSC2=NN3CCCC(=O)N=C3S2)s1 = TRPML1 ag = -0.4; Six1-Eya2 blk = -1; TRPML1 blocker = -2; PINK1 modulator = 0.4%; D2 ag = 3.5; CtBP-E1A blk = 5
Entry for Cc1ccc(NC(=O)c2ccc(NS(=O)(=O)c3cccc4cccnc34)cc2)cc1 = TRPML1 ag = 2.8; Six1-Eya2 blk = -7; TRPML1 blocker = 9; PINK1 modulator = -0.1%; D2 ag = 11; CtBP-E1A blk = 0

The list goes on.
SMILES	TRPML1 ag	Six1-Eya2 blk	TRPML1 blocker	PINK1 modulator	D2 ag	CtBP-E1A blk
Cn1nc(-c2ccc(OCC(=O)Nc3cccnc3)cc2)c2ccccc2c1=O	2.5	-1	-11	2.0%	4.7	-1
Cc1sc2nc(CSCC(=O)NC(C)(C)C)[nH]c(=O)c2c1C	2.6	-1	-5	0.0%	-6.5	x
CC(C)CC(=O)NC(NC(=S)Nc1cccc2cccnc12)C(Cl)(Cl)Cl (centres undefined)	0.4	-7	6	22%	-3.5	-7
C=CCN(CC=C)C(=S)Nc1ccccc1	0.3	4	8	-5.1%[38.3 µM]	0.6	9
O=C(N/N=C/c1ccccc1O)c1ccncc1	0.3	-92*	9	3.2%	-0.6	-92*
COc1ccc(NC(=O)C2CCN(C(=O)NCc3ccccc3)CC2)cc1	0.2	5	15	-2.6%	-0.9	-8
CC1SC(c2cccc(Cl)c2)NC1=O (centres undefined)	-0.9	2	7	-3.6%	0.3	1
OCCC1CN(Cc2ccc3nsnc3c2)CCN1CCc1ccccc1 (centres undefined)	0.2	5	-7	2.6%	-3.1	-5
CC(CC(=O)O)Nc1ccccc1O (centres undefined)	-0.4	-4	12	12%	-1.8	-9
CC(C)(C)c1cc(NC(=O)C2(C)CCN2C(=O)C2(c3ccccc3)CCCC2)no1 (centres undefined)	-0.9	-5	x	3.2%	-3.2	1
Cn1c(=O)c([N+](=O)[O-])c(-n2ccnc2)c2ccccc21	-0.4	-9	13	1.6%	-5.7	-1
Cc1c(C(=O)N2CCN(c3ncccn3)CC2)sc2nc3n(c(=O)c12)CCCC3	-0.1	-15	12	0.3%	0.2	-2
Cn1c(SCc2cccnc2)nnc1-c1c[nH]c2ccccc12	-0.2	3	6	-0.5%	1.1	5
Cc1cc(NC(=O)C(C)SCC(=O)OC(C)C(=O)Nc2ccccc2C)no1 (centres undefined)	-0.6	5	-16	-0.3%	-2.5	-1
Cc1cc(C(=O)O)c(=O)[nH]c1C	-0.4	0	-1	-1.5%[38.3 µM]	0.0	0
O=C(NNC(=O)c1sccc1-n1cccc1)c1ccc(F)cc1	0.4	7	-10	1.3%	0.0	x
O=C(COc1ccccc1[N+](=O)[O-])Nc1cccc(Cl)c1N1CCOCC1	6.6	-10	-10	3.6%	-3.4	-2
CCOc1ccc2c(c1)C(N(CCN1CCOCC1)C(=S)Nc1ccccc1OC)CC(C)(C)O2 (centres undefined)	-0.6	-16	-7	0.7%	-1.4	x
Cc1ccc(S(=O)(=O)NC(=O)NC(=O)N(C)S(=O)(=O)c2ccc(C)cc2)cc1	-0.3	-1	-10	0.3%	-3.0	-2
COc1cccc2cc(C(N)=O)oc12	0.6	0	-7	1.6%	3.0	-10
CCC(C)(C)n1nnnc1C(c1ccccc1)N1CCN(Cc2ccccc2)CC1 (centres undefined)	0.5	3	31	1.6%	-1.7	-1
O=C(N/N=C/c1c[nH]c2ccccc12)c1ccc2c(c1)OCCO2	0.5	-6	0	3.1%	-3.0	-12
NC(=O)C(=O)NN=C1CCC(c2ccccc2)CC1 (centres undefined)	-1.6	6	2	-1.3%	-8.0	2
CCSc1cnn(-c2ccccc2)c(=O)c1SCC	-0.4	-1	-8	x	-2.4	-5
Cc1cc(-c2nnc(CCC(=O)NC(Cc3ccccc3)c3ccccc3)o2)no1 (centres undefined)	-0.4	5	-6	-0.5%	4.2	3

Reprinted from the part before: 2 entries; new compounds follow.
SMILES	TRPML1 ag	Six1-Eya2 blk	TRPML1 blocker	PINK1 modulator	D2 ag	CtBP-E1A blk
CCSc1cnn(-c2ccccc2)c(=O)c1SCC	-0.4	-1	-8	x	-2.4	-5
Cc1cc(-c2nnc(CCC(=O)NC(Cc3ccccc3)c3ccccc3)o2)no1 (centres undefined)	-0.4	5	-6	-0.5%	4.2	3
CCC(CC)NC(=O)Nc1ccc(C)cc1	-0.4	-3	-17	0.9%	-7.0	4
CC(C)c1ccc(NC(=O)Nc2cc3sccc3n2C)cc1	-0.4	-15	-15	1.7%	4.3	0
Cn1c2c(c(=O)n(C)c1=O)C(NS(=O)(=O)c1ccc(Cl)cc1)(C(F)(F)F)C(=O)N2 (centres undefined)	-0.5	12	21	0.0%	-2.2	8
O=Cc1ccc(OC(=O)CCCCC(=O)Oc2ccc(C=O)cc2)cc1	x	u	x	-0.2%	-5.5	-7
COc1ccc(C(=O)OCC(N)=O)cc1[N+](=O)[O-]	-0.5	15	-15	0.8%	-3.9	8
OCCNc1nc(-c2ccccc2)nc2ccccc12	0.8	-3	17	3.4%	-2.0	5
Cc1ccc(S(=O)(=O)Nc2ccc3cn[nH]c3c2)c(C)c1	0.7	4	3	-1.2%	-5.1	-1
Cc1ccc(C2/C=C\CC(NC(=O)OCC3c4ccccc4-c4ccccc43)CC(=O)N2Cc2ccccc2)cc1 (centres undefined)	0.0	-13	65	-0.6%	-4.3	-14
CCN(CC)C(=O)CSc1nc2cc3c(cc2c(=O)n1Cc1ccc(OC)cc1)OCO3	0.8	1	12	5.6%	-1.6	-26
N#CCSc1ccccc1NC(=O)COc1ccc(-c2nnco2)cc1	4.8	-11	3	-0.5%	7.0	-10
CC1N=C2c3ccccc3N=C(SCC(=O)NCc3ccc(Cl)cc3)N2C1=O (centres undefined)	0.0	x	-10	4.4%	x	x
CCOC(=O)C(NC(C)=O)C(=O)Nc1ccc(C(C)(C)C)cc1 (centres undefined)	0.9	-3	3	2.7%	-1.0	17
Cc1cccc(N2CCN(C(=O)C3CCN(S(=O)(=O)c4c(C)noc4/C=C/c4ccccc4F)CC3)CC2C)c1 (centres undefined)	-0.2	x	-9	0.3%	x	x
NC(=O)CC(NC(=O)c1cccc(Br)c1)c1ccc(N2CCN(c3ccccn3)CC2)c([N+](=O)[O-])c1 (centres undefined)	-0.5	1	3	0.2%	-2.5	0
Cc1cc(N2CCN(c3ccccc3)CC2)nc2ccccc12	0.8	-4	18	2.4%	-7.0	18
O=S(=O)(NCc1cccnc1)c1ccc(Br)s1	-0.6	2	-14	0.1%[38.3 µM]	2.5	4
Cn1ncc2c(NCc3ccccc3Cl)nc(NCCO)nc21	1.6	x	-9	1.6%	x	x
CC(C)Cn1c(SCC(=O)Nc2ccc3[nH]c(=O)[nH]c3c2)nc2ccccc2c1=O	1.1	-11	-11	4.6%	-1.8	-8
C=CCOc1ccc(C2N3CC4(CC)CN2CC(CC)(C3)C4=O)cc1 (centres undefined)	-1.5	-4	44	-0.4%	-1.0	4
C=CCN1C(=NC(=O)CCCC(=O)O)SC2CS(=O)(=O)CC21 (centres undefined)	-0.5	6	21	0.2%	-2.9	8
CC(C)CNC(=S)NNC(=O)c1ccc(OC(F)F)cc1	0.2	2	-10	4.7%[38.3 µM]	-2.8	7
O=[N+]([O-])c1ccc(/C=C/c2nc3ccc([N+](=O)[O-])cc3[nH]2)cc1	-0.7	-8	24	u	0.8	-1

Screening data as filed in PubChem BioAssay.
